GIV-Gai inh: inhibitors of GIV peptide binding to Galpha-i3, primary screen, biochemical, fluorescence polarization, FITC-GIV GBA peptide, rat Galphai3; Guanine nucleotide-binding protein G(i) subunit alpha-3 (Rattus norvegicus), P08753; 90 min; active compounds read low; scaled: aluminum fluoride 0%, vehicle 100%; percent of control (FP), % (no concentration beside the values); actives 0.42% (n = 210,000); AID 1224905, 2016;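 active means replicate mean at 85% of control or lower, very high polarization wells dropped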;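 further: wells of about 15 µL received 100 nL stock; the first replicate is given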
Target sequence (P08753 whole entry, looked up): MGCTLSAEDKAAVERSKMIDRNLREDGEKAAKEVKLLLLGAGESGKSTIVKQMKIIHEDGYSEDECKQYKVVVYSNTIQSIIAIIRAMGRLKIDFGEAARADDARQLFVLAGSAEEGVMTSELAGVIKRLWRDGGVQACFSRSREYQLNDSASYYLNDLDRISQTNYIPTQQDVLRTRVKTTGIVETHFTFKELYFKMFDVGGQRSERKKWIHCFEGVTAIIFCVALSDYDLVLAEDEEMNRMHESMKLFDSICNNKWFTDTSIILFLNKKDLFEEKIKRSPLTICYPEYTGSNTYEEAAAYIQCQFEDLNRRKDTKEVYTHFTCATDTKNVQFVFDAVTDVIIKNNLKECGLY
Sa growth 42C: S. aureus growth inhibition at 42 and 30 °C, primary screen, LtaS inhibitor project, RN4220, two temperatures | actives 0.53% (n = 170,000) | OD600, 20 h, 42 °C; active compounds read low | relative growth, % (concentration not given with the values);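 active means growth at 42 °C up to 50% and 20 or more points under that at 30 °C, or under 10% at both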;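 further: 300 nL library stock went into each well; scaled to the means of positive and negative controls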
HCMV NEC inh: inhibitors of HCMV UL50-UL53 interaction, biochemical, HTRF | actives 0.15% (n = 190,000) | normalized percent inhibition | HCMV UL50-UL53 nuclear egress complex (human cytomegalovirus) | inhibition, % (test concentration not listed) | AID 1918969, 2023;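 active means both replicates at 50% or more, plus weaker picks with an unusually low signal ratio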;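 further: stock transfer was 100 nL into about 20 µL; 0% = negative control wells and 100% = wells with untagged competitor protein; inactives centre near -12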
Sa growth 42C second temp: second read-out of Sa growth 42C, no call of its own (marks repeat the call); relative growth, %; measured here: growth at 30 °C;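 optical density after 20 h as mean of two plates; 100% = untreated growth and lower means inhibition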
Active calls of the source: *; . = not tested or not shown; & = joins results of further samples.

#	Compound	GIV-Gai inh	Sa growth 42C
1	Cc1nn(C)c2c1c(C(F)(F)F)cc(=O)n2C(C)C(=O)NCCc1ccccc1 (configuration not stated)	101.9	98.3
2	CCCCNC(=O)COc1ccc(-c2noc(-c3ccccc3)n2)cc1OC	117.6	.
3	CCN(CCCNC(=O)c1nn(-c2ccc(C)cc2)c(=O)c2c1c1ccccc1n2C)c1ccccc1	104.3	107.5
4	O=C(Nc1ccc(Nc2ccccc2)cc1)c1cc(=O)c2ccccc2o1	.	108.6
5	O=C(c1ccc(Cl)cc1Cl)n1cc2c(n1)CCOC2	100.6	100.0
6	COc1ccc(-n2nnc(-c3nc(-c4ccccc4C)no3)c2N)cc1Cl	100.0	76.6
7	O=C(NCc1ccc2c(c1)OCO2)c1cc2ccccc2o1	.	124.5
8	N#CC1=C(N)Oc2n[nH]c(-c3ccccc3)c2C1c1ccoc1 (configuration not stated)	105.5	93.9&101.5
9	CCC(C)S(=O)(=O)c1oc(-c2cccs2)nc1S(=O)(=O)c1ccccc1 (configuration not stated)	109.8	3.7*
10	O=C(NCc1ccccc1)c1ccc[n+]([O-])c1	.	83.4

#	Sa growth 42C second temp	HCMV NEC inh
1	92.6	.
2	.	-6.6
3	90.7	-2.4
4	96.5	-15.0
5	93.7	-30.1
6	87.7	.
7	83.1	-0.6
8	74.0&102.2	2.4&-13.2
9	21.7*	-2.1
10	95.4	-1.0

(further entries)
#	Compound	GIV-Gai inh	Sa growth 42C
11	Cc1cccc(C)c1-n1ncc(C(=O)Nc2ccc3c(c2)OCO3)c1C1CCN(C(=O)OC(C)(C)C)CC1	109.7	81.8
12	COc1cc(/C=C2/NC(=S)NC2=O)ccc1OCc1ccc(Cl)cc1Cl	107.3	.
13	CCn1c(SCC(=O)NC(=O)c2cccn2C)nnc1-c1cccs1	.	102.4
14	CCOC(=O)c1c(C)oc2ncnc(NCC3CCCO3)c12 (configuration not stated)	101.9	.
15	Cc1ccc(S(=O)(=O)NCC(c2ccc(N(C)C)cc2)N2CCCC2)cc1 (configuration not stated)	100.1	80.3
16	COc1ccc(N2CC(NC(=O)c3cccs3)CC2=O)cc1OC (configuration not stated)	102.4	100.1
17	N#CC1=C(N)N(c2sc3c(c2C#N)CCCC3)C2=C(CCC2)C1(C(F)(F)F)C(F)(F)F	.	102.2
18	COc1ccccc1N1CCN(C(=O)c2cc3c(=O)oc4ccccc4c3s2)CC1	108.6	90.3
19	CC(N)c1ccc(C(=O)O)o1 (configuration not stated)	106.4	102.3
20	N#CC(C(=O)c1ccc(S(=O)(=O)N2CCCCC2)cc1)c1nc2ccccc2c(=O)[nH]1 (configuration not stated)	.	90.4

#	Sa growth 42C second temp	HCMV NEC inh
11	76.5	.
12	.	-8.9
13	98.8	3.1
14	.	1.9
15	85.8	.
16	86.4	.
17	87.0	-16.6
18	99.4	10.4
19	93.7	-0.5
20	93.7	16.8

Remaining list, next part
#	Compound	GIV-Gai inh	Sa growth 42C
21	O=[N+]([O-])c1cc2c3c(c1)C1C=CCC1C(c1ccc(F)cc1)N3CC1CC=CC21 (configuration not stated)	102.4	.
22	C[n+]1ccc(CCc2cc[n+](C)cc2)cc1	104.3	70.0
23	CCOC(=O)CSc1nc2c(c(=O)[nH]1)C1(CCCC1)Cc1ccccc1-2	95.7	112.8
24	CCCn1c(N2CCN(C(=O)/C=C/C(=O)O)CC2)nc2ccccc21	97.1	115.1
25	CSc1ncc(-c2ccc(Cl)cc2)cn1	103.8	.
26	CCc1ccc(CNC(=O)C2CCN(c3nnc(-n4c(C)ccc4C)s3)CC2)cc1	103.0	90.8
27	COc1cc(OC)cc(OCC(O)Cn2ccnc2)c1 (configuration not stated)	.	120.3
28	Cc1ccc(C2=NS(=O)(=O)N(C)C(C(=O)N3CCC(C)CC3)=C2)cc1	105.4	96.8
29	CS(=O)c1ccccc1O (configuration not stated)	108.2	.
30	Cc1ccc(NS(=O)(=O)c2ccc3[nH]c4c(c3c2)CCCC4)c(C)c1	98.6	73.9

#	Sa growth 42C second temp	HCMV NEC inh
21	.	-20.1
22	86.9	-45.6
23	107.4	-9.8
24	84.9	-0.1
25	.	2.3
26	47.7	-13.8
27	89.1	-5.4
28	88.9	-24.8
29	.	-5.4
30	95.1	.

Next section:
#	Compound	GIV-Gai inh	Sa growth 42C
31	C=CCN=C1NN=C(c2ccc(Cl)cc2)C(C)S1 (configuration not stated)	.	101.6
32	Nc1sc2c(c1C(=O)c1cccs1)CCCC2	.	91.9
33	CC(C)(C)c1ccc(C(=O)N2CCN(CCc3ccccn3)CC2)cc1	99.0&104.2	101.3
34	CC(C)(C)C1CCc2nc(NC(=O)COc3ccc(F)cc3)sc2C1 (configuration not stated)	103.7	99.9
35	CCSc1nc2ccccc2c(=O)n1C(C)C	.	80.4
36	O=C1CSCC(=O)N1c1ccc(Cl)cc1	100.0	99.9
37	CCN(C(=O)CSc1nc2ccccc2n1Cc1ccccc1C#N)c1ccccc1	108.2	102.4
38	CCOC(=O)N1CCN(C(=O)CN(c2cc(C)ccc2OC)S(=O)(=O)c2ccc(C)cc2)CC1	106.9	108.3
39	COc1ccc(Cl)cc1NC(=O)NC(Cc1ccccc1)Cc1ccccc1	106.8	.
40	N#CC1CN(Cc2cccs2)CN(Cc2cccs2)C1	105.9	94.1

#	Sa growth 42C second temp	HCMV NEC inh
31	96.3	-20.2
32	90.2	-25.5
33	91.9	-0.1&-10.7
34	90.8	27.4
35	83.8	-18.7
36	87.0	-24.7
37	94.8	.
38	93.8	6.1
39	.	-17.1
40	87.6	-28.1

Entries of single compounds, looked up by structure. Values in the order: GIV-Gai inh | Sa growth 42C | Sa growth 42C second temp | HCMV NEC inh
Listed for Nc1sc2c(c1C(=O)c1cccs1)CCCC2 = . | 91.9 | 90.2 | -25.5
Listed for CCCn1c(N2CCN(C(=O)/C=C/C(=O)O)CC2)nc2ccccc21 = 97.1 | 115.1 | 84.9 | -0.1

Remaining list, next part:
#	Compound	GIV-Gai inh	Sa growth 42C
41	CCOC(=O)c1cc(NC(C)=O)ccc1Oc1cncc(Cl)c1	101.6	100.4
42	COc1cccc(C(=O)Nc2ccc(-c3nc4ccccc4s3)cc2Cl)c1	96.6	136.8
43	O=C1CC(/C=C/c2ccco2)=Nc2ccccc2N1	103.7	84.7
44	Cc1cc(=O)n2[nH]c(CNc3ccccc3)nc2n1	101.8	.
45	COc1ccc(OC)c(-c2cc(C(=O)NC(C)c3ccccc3)no2)c1 (configuration not stated)	103.6	97.9
46	O=C(/C=C/c1ccc(Cl)cc1)NCCCn1ccnc1	97.5	98.3
47	Cc1cccc(OCc2nnc(-c3ccccc3)o2)c1	102.7	95.0
48	Cc1ccc2cnn(CC(=O)N3CCc4ccccc4C3)c2c1	101.2	106.5
49	O=c1c2ccccc2nc(N2CCN(c3cccc(Cl)c3)CC2)n1-c1ccccc1	107.8	97.0
50	COc1cccc(CNC(=O)CCn2nc(C)c3c(C)n(-c4ccccc4)nc3c2=O)c1	100.7	94.4

#	Sa growth 42C second temp	HCMV NEC inh
41	78.5	-5.1
42	96.6	.
43	73.2	-40.5
44	.	-26.3
45	74.2	-10.1
46	85.5	.
47	82.4	-5.6
48	86.4	-16.0
49	85.9	-5.4
50	92.4	.

(listing goes on)
#	Compound	GIV-Gai inh	Sa growth 42C
51	O=C1CCCN2N=C(SCC(=O)Nc3cccc(Cl)c3)SC2=N1	104.9	.
52	CCC(=O)NCC(c1cccs1)N1CCOCC1 (configuration not stated)	.	112.3
53	O=C(CN1CCN(c2cccc(Cl)c2)CC1)NCCc1ccccc1	108.5	96.1
54	CC(C)N(Cc1nc(-c2ccccc2)no1)C(=O)CCN1C(=O)c2ccccc2C1=O	101.2	101.2
55	Cc1cc(C(=O)NC2CC2)n(-c2ccccc2)n1	97.0	104.9
56	O=C(CCCn1c(=O)c2cccn2c2ccccc21)NCc1ccccc1Br	102.4	106.1
57	O=C(CCCc1ccccc1)NC1CC1	.	96.2
58	CC(C)OCc1cc(CN2CCN(C)CC2)c(O)c2ncccc12	107.2	86.5
59	COC(=O)c1ccc(NC(=O)COC(=O)C2CCN(S(=O)(=O)c3cccs3)CC2)cc1	.	97.6
60	CC1=Nn2c(Cn3nnc4ccccc43)nnc2SC1	104.5	87.8

#	Sa growth 42C second temp	HCMV NEC inh
51	.	-5.2
52	79.8	-20.0
53	85.1	5.7
54	74.7	-31.0
55	87.8	2.9
56	69.1	-5.6
57	88.7	-11.7
58	87.4	-38.4
59	82.9	-18.0
60	86.5	-1.9

The listing continues.
#	Compound	GIV-Gai inh	Sa growth 42C
61	Cc1ccc(-c2nnc(SCN3C(=O)c4ccccc4C3=O)o2)cc1C	.	98.4
62	O=C(NC1CC1)C1CCN(C(=O)NCc2ccccc2)CC1	102.1	109.5
63	CCCn1c(SCC(=O)NCCc2ccccc2)nc(O)cc1=O	.	83.2
64	COc1ccc(-c2c(C)[nH]n3c(=O)c(Cc4ccccc4)c(C)nc23)cc1	98.4	71.1
65	COc1ccc(Cl)cc1S(=O)(=O)Nc1cccc(-c2ccc(N3CCC(C)CC3)nn2)c1	101.9	.
66	Cn1c(C(=O)NCc2ccc(F)cc2)cc2c(=O)[nH]c3ccccc3c21	100.6	109.6
67	COc1ccccc1-c1cc(C(=O)N2CCCCC2C)no1 (configuration not stated)	101.7	103.2
68	N#C/C(=C\c1[nH]c2ccccc2c1O)C(N)=NCCc1ccccc1	298.0	70.1
69	O=C(c1ccc(F)cc1)C1CCN(Cc2cn[nH]c2-c2ccc(F)cc2)CC1	107.9	82.3
70	O=C(C1CCCN(c2ncnc3onc(-c4ccc(F)cc4)c23)C1)N1CCN(c2ccccn2)CC1 (configuration not stated)	100.4	.

#	Sa growth 42C second temp	HCMV NEC inh
61	101.3	-19.9
62	99.6	-10.8
63	91.7	-21.7
64	29.6	.
65	.	-23.8
66	99.3	2.3
67	82.8	-21.5
68	74.0	.
69	84.3	-4.7
70	.	1.4

The last 6 compounds of the section above lead into the next:
#	Compound	GIV-Gai inh	Sa growth 42C
65	COc1ccc(Cl)cc1S(=O)(=O)Nc1cccc(-c2ccc(N3CCC(C)CC3)nn2)c1	101.9	.
66	Cn1c(C(=O)NCc2ccc(F)cc2)cc2c(=O)[nH]c3ccccc3c21	100.6	109.6
67	COc1ccccc1-c1cc(C(=O)N2CCCCC2C)no1 (configuration not stated)	101.7	103.2
68	N#C/C(=C\c1[nH]c2ccccc2c1O)C(N)=NCCc1ccccc1	298.0	70.1
69	O=C(c1ccc(F)cc1)C1CCN(Cc2cn[nH]c2-c2ccc(F)cc2)CC1	107.9	82.3
70	O=C(C1CCCN(c2ncnc3onc(-c4ccc(F)cc4)c23)C1)N1CCN(c2ccccn2)CC1 (configuration not stated)	100.4	.
71	CCOc1cc2sc(N3CCC(C(=O)Nc4cc(C)cc(C)c4)CC3)nc2cc1Br	109.4	99.1
72	COc1ccc(OCC(=O)N2CCc3c(c(C(=O)NCc4ccccc4)nn3C)C2)cc1	104.5	.
73	O=C1CC2CS(=O)(=O)CC2N1c1ccc(Oc2ccccc2)cc1 (configuration not stated)	.	98.4
74	c1ccc(CNc2ccc(-c3nc(-c4ccccc4)no3)nn2)cc1	98.0	.
75	COc1ccc(Oc2cccc(Cl)c2CNC(=O)CCC(=O)O)cc1	103.0	106.6
76	Cc1cc(C)nc(SCC(=O)OCC(=O)Nc2cc(C)nn2-c2ccccc2)n1	.	106.1
77	Cc1ccc(NC(=O)CCC(=O)N2Cc3ccccc3Oc3ncccc32)cc1F	99.3	81.9
78	CCOC(=O)c1cc(C)n(-c2cccc(F)c2C#N)n1	110.0	104.3
79	COC(=O)CSc1nnc(-c2ccccc2)n1C	99.6	106.3
80	Cc1nn(-c2ccccc2)c2sc(C(=O)NCCCN3CCOCC3)cc12	.	91.4

#	Sa growth 42C second temp	HCMV NEC inh
65	.	-23.8
66	99.3	2.3
67	82.8	-21.5
68	74.0	.
69	84.3	-4.7
70	.	1.4
71	97.7	5.5
72	.	-36.2
73	84.2	-9.3
74	.	-23.6
75	96.8	-6.8
76	88.7	-23.8
77	82.8	.
78	92.9	-19.7
79	110.8	9.9
80	88.9	4.0

Additional entries:
#	Compound	GIV-Gai inh	Sa growth 42C
81	CCc1ccc(S(=O)(=O)Nc2cc(C(=O)O)ccc2N(CC)Cc2ccccc2)cc1	104.8	.
82	CCn1ccc2cc(S(=O)(=O)N3CCCN(C(=O)Nc4ccc(F)cc4)CC3)ccc21	100.0	.
83	Cc1[nH]c2ccc(OC(F)(F)F)cc2c1CCNC(=O)c1c(Cl)cnn1C	.	82.7
84	CC(C)c1ccc(NC(=O)CNS(=O)(=O)c2ccccc2)cc1	107.1	109.2
85	COc1cccc(NC(=O)N2CCC(n3c(C)nc4cccnc43)CC2)c1	103.3	96.1
86	c1ccc(-c2noc(-c3ccc(NCc4ccc5c(c4)OCO5)nn3)n2)cc1	100.3	.
87	O=C(NC1CCCC1)c1ncoc1-c1cccs1	105.2	95.6

#	Sa growth 42C second temp	HCMV NEC inh
81	.	-0.4
82	.	-3.3
83	95.6	2.4
84	96.6	-8.2
85	90.9	.
86	.	-15.2
87	74.0	-46.4

High-throughput results: PubChem BioAssay, ICCB-Longwood Screening Facility, Harvard Medical School

No enrichment for hits; any-hit rate near 0.83%.
